Insulin prom inh – inhibitors of insulin promoter-driven GFP, primary screen, imaging, TRM-6 cells (human fetal islet line), eGFP reporter, cell count. inhibition, % at 2 µM. reporter expression induced with tamoxifen. 130,000 tested, 0.9% active;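 active = inhibition above the mean plus 3 SD, with well images judged a real hit on visual review, cut at about 60% in these data, passing the limit was not always enough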
RGS16-Gao HTS – modulators of RGS16 binding to Galphao, primary screen, biochemical, human proteins, multiplexed bead flow cytometry. Regulator of G-protein signaling 16 (Homo sapiens) + Guanine nucleotide-binding protein …. bead-based flow cytometry RGS16-Galphao binding, fluorescence; actives lie on both sides. binding response (% of control), % at 10 µM. 220,000 tested, 0.38% active. AID 1441, 2008;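 active = below 25% or above 175%, edge rows of some plates excepted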;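 also: Galphao activated by GDP with aluminum fluoride before binding; 100% = wells without compound and 0% = beads without RGS; some results beyond the cut were filed as inactive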
HSV augment – enhancers of HSV replication in host cells, fold increase, host cell viability. 220,000 tested, 0.005% active. maximum fold increase. HSV replication augmentation in cells;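 active = peak rise of 1.5-fold or more in the series; tested in PC3 cells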;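 also: first round at 10 µM; read as green reporter fluorescence; hits show the peak of a series up to 25 µM; 1 = signal of infected wells without compound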
GALR2 agonist – GALR2 receptor agonists, primary screen, cell-based; Galanin receptor type 2 (Homo sapiens), O43603; GALR2-expressing cells, agonist activation read-out; activation, %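 (tested at 5 µM)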; 140,000 tested, 0.48% active; AID 803, 2007;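 active = above mean plus 3 SD of all compounds, about 5% in these data, not always enough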;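 also: 0% = vehicle buffer wells and 100% = reference agonist at full effect; tested in CHO reporter cells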
PKD1 inh – inhibitors of human PKD1 kinase, biochemical, fluorescence polarization; Serine/threonine-protein kinase D1 (Homo sapiens), Q15139; PKD1 kinase fluorescence polarization assay; inhibition, %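 (about 10 µM by stock and volumes)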; 200,000 tested, 0.056% active;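 active = inhibition of 50% or more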;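 also: controls were vehicle for no effect and a reference inhibitor for full effect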
Target sequence (Q15139 whole entry, looked up): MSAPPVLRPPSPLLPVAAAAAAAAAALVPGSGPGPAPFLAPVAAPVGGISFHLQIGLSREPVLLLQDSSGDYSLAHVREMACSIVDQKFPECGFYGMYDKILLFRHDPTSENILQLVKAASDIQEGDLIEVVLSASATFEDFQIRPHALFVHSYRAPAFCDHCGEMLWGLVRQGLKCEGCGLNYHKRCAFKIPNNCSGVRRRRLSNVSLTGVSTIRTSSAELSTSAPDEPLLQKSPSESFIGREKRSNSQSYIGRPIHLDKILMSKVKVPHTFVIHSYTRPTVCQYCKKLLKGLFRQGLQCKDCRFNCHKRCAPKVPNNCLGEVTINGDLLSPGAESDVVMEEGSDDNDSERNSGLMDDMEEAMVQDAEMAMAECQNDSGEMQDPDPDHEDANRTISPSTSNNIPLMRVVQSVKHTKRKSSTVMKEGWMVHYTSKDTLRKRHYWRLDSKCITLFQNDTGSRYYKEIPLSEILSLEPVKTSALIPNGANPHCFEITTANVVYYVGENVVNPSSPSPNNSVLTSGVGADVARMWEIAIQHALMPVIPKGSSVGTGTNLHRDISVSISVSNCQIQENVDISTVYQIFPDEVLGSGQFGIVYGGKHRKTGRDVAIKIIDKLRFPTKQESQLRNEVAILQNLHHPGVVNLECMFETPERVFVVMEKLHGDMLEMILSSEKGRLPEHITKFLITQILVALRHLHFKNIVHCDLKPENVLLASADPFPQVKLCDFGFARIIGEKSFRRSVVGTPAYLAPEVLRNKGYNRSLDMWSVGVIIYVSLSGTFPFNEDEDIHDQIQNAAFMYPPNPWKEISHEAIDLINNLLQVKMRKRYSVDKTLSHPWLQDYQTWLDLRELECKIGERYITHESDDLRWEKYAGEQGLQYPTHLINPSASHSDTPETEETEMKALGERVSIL
Insulin prom inh cell count – further read-out of Insulin prom inh, marked with its call; normalized cell count, %; measured here: cell count, toxicity; reference of the scale not given here;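 cells exposed to compound for 48 h; stained nuclei by imaging scaled within each plate; lower means fewer cells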
HSV augment primary fold – further read-out of HSV augment, marked with its call; fold increase; compound at 10 µM; measured here: primary screen fold increase 10 uM; tested in PC3 cells;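 GFP signal in the first replicate; 1 = infected wells without compound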
The depositor's hits bear a star; i = inactive; x = not tested or not shown.

Compound	Insulin prom inh	Insulin prom inh cell count	RGS16-Gao HTS	HSV augment	HSV augment primary fold	GALR2 agonist	PKD1 inh
FC(F)(F)c1cc(-c2cccs2)nc2nc(N3CCOCC3)sc12	-8.3	102.5	110.5	i	0.87	x	-0.5
CCCCOC(=O)C1=C(C)Nc2ncnn2C1c1cccc(OC)c1OC (stereo not drawn)	7.9	91.7	99.0	i	0.88	1.0	8.5
COC(=O)c1ccc(N2C(=O)CC(SCC(=O)Nc3ccc(OC)cc3)C2=O)cc1 (stereo not drawn)	x	x	100.7	i	0.96	x	x
COC(=O)C1CCN(C(=O)NC2CCCCC2)CC1	-12.5	77.9	103.9	i	0.96	-1.2	2.4
O=C(CN1C(=O)c2ccccc2S1(=O)=O)N1CCN(c2ccccc2F)CC1	18.5	90.7	94.3	i	0.94	-1.0	3.7
O=C(Nc1ccc2c(c1)OCCO2)c1c(F)cccc1F	-114.3	93.2	101.0	i	1.11	-0.1	-7.2
COc1ccc(S(=O)(=O)Nc2cc(OC)c(NC(=O)c3ccco3)cc2OC)cc1	6.1	99.4	80.2	i	0.77	-2.5	-4.3
COc1ccc(OC)c(S(=O)(=O)n2ccnc2C)c1	-37.1	78.4	97.8	i	0.91	-1.6	-0.2
CNC(=S)N/N=C/c1cn(CCOc2ccc(OC)cc2)c2ccccc12	x	x	102.1	x	x	-1.1	-16.1
CCn1c(SCC(=O)N2CCN(c3ccc(F)cc3)CC2)nnc1-c1ccncc1	-21.4	105.0	98.6	i	0.95	-1.1	-12.0
O=C(COc1cc(Cl)ccc1Cl)Nc1nnc(CC(=O)N2CCOCC2)s1	-4.2	142.2	103.0	i	0.89	-1.3	-7.2
COC(=O)CSc1nc2c(c(=O)n(C)c(=O)n2C)n1CCCc1ccccc1	x	x	102.2	i	1.01	0.0	-8.7
CC(C)Oc1ccc(C(=O)NC2CCCCC2)cc1	x	x	103.2	i	0.88	-1.0	5.2
O=C(OCC(=O)N(Cc1ccccc1)C1CCS(=O)(=O)C1)c1cc2c(s1)CCCC2 (stereo not drawn)	-10.3	85.0	99.4	i	1.13	-0.9	-2.8
CC(=O)/C(N=Nc1cc2c(c([N+](=O)[O-])c1C)C(C)(C)CC2(C)C)=C(\C)O	x	x	106.1	i	0.85	x	x
O=C1Nc2cccnc2Sc2ccccc21	x	x	98.8	i	0.89	0.8	11.2
Cn1c(N)c(C(=O)COC(=O)c2ccc(Cl)c(S(=O)(=O)N3CCCC3)c2)c(=O)n(C)c1=O	x	x	101.6	i	1.08	x	x
CCOC(=O)C1=C(C)NC(=O)NC1/C(C)=C/c1ccccc1 (stereo not drawn)	28.1	109.9	101.3	i	0.85	-0.9	13.0
CSc1cccc(NC(=S)N(CCCN2CCC(C)CC2)Cc2cccs2)c1	-13.3	155.4	91.1	i	0.9	x	-3.4
COc1cc(OC)nc(NC(=O)COC(=O)C2CCCCC2)n1	x	x	105.3	i	1	-0.4	10.8
O=C(CCN1CCOCC1)NNC(=S)NC(=O)c1ccc(Br)cc1	57.1	96.2	105.3	i	0.99	x	2.8
Cc1csc(SCC(=O)N2CCCC2)n1	6.9	136.6	98.3	i	0.94	-2.5	1.4
CCOC(=O)c1c(C)[nH]c(C)c1C(=O)COC(=O)c1cccc(C)c1O	42.9	135.2	86.6	i	0.89	-0.2	15.0
N#CCCSCc1ccc(C(=O)O)o1	6.2	131.0	101.1	i	0.91	-1.4	-4.6
COc1ccc(Cl)cc1S(=O)(=O)N1CCN(C)CC1	x	x	106.9	i	0.81	x	2.1

Complete entries from above. Values in the order: Insulin prom inh	Insulin prom inh cell count	RGS16-Gao HTS	HSV augment	HSV augment primary fold	GALR2 agonist	PKD1 inh
Listed for `O=C(OCC(=O)N(Cc1ccccc1)C1CCS(=O)(=O)C1)c1cc2c(s1)CCCC2` (stereo not drawn) = -10.3	85.0	99.4	i	1.13	-0.9	-2.8
Listed for `COC(=O)C1CCN(C(=O)NC2CCCCC2)CC1` = -12.5	77.9	103.9	i	0.96	-1.2	2.4

(more compounds)
Compound	Insulin prom inh	Insulin prom inh cell count	RGS16-Gao HTS	HSV augment	HSV augment primary fold	GALR2 agonist	PKD1 inh
COc1cc(/C=C/C(=O)O)cc(S(=O)(=O)Nc2cccc(S(=O)(=O)N3CCOCC3)c2)c1OC	x	x	100.3	i	0.9	x	x
CCC(C(=O)NCCCc1ccccc1)c1ccccc1 (stereo not drawn)	-41.4	110.4	101.4	i	1	-0.5	-3.2
O=C(N/N=C/c1cccn1-c1ccccc1)c1ccncc1	48.1	148.2	96.9	i	1.01	x	-4.1
O=C(NCCc1csc(-c2cccnc2)n1)c1ccccc1Br	x	x	92.5	i	0.89	x	x
O=C(O)CCCn1cc(NC(=O)COc2ccccc2[N+](=O)[O-])cn1	x	x	94.8	i	0.99	x	-2.6
O=C1C2CCCN2C(c2ccccc2)N1c1ccc(Cl)cc1 (stereo not drawn)	20.0	68.7	104.7	i	1.03	-0.4	0.8
COc1ccc(-c2noc(CCC(=O)Nc3cc(Cl)c(OC)cc3OC)n2)cc1	14.3	51.7	107.4	i	0.83	-3.3	6.9
NNC(=O)c1sc(-c2ccc(Cl)cc2)cc1N	-58.3	75.5	86.9	i	1.11	x	-0.5
CCCOC(=S)N/C(=N\S(=O)(=O)c1ccccc1)c1ccccc1	-7.1	70.2	98.8	i	1.23	-1.7	-7.0
CCOC(=O)C1=C(C)N(C)C(=S)NC1c1ccc(Cl)cc1 (stereo not drawn)	x	x	102.1	x	x	-2.8	-4.2
CC(=O)Nc1ccc(NC(=S)NC(=O)c2ccc([N+](=O)[O-])c(C)c2)cc1	26.5	97.2	37.6	i	1.08	-1.1	7.1
O=C(COC(=O)COc1ccc(Cl)cc1)NC1CCCCC1	28.9	90.0	102.7	i	0.9	-0.6	-7.9
CCN(CC)C(=O)Cn1cc(/C=C(\C#N)C(=O)N2CCN(c3ccccc3)CC2)c2ccccc21	-40.0	106.0	100.2	i	1.03	-0.9	3.0
CC(=O)c1c(C)nc(Nc2nc3ccccc3s2)nc1C	x	x	104.4	i	0.74	x	x
CCOc1ccccc1N1CCN(C(=S)NCc2ccco2)CC1	-40.6	109.1	102.9	i	1.11	-1.1	1.6
C/C(N)=C(/C#N)C(=O)COC(=O)CNS(=O)(=O)c1ccc2ccccc2c1	x	x	101.8	i	1.14	x	x
CCOC(=O)C1=C(C)NC(c2cccs2)C(=O)N1 (stereo not drawn)	x	x	106.8	i	0.94	0.5	3.6
Cc1cc(C)cc(NC(=S)NCCN2CCOCC2)c1	14.8	101.6	x	i	0.86	-1.1	-2.8
CC(C)c1nc(N2CCCC2)c(C#N)c2c1CCCC2	43.2	44.7	100.1	i	0.89	-0.6	-0.2
O=C(NCc1ccccn1)c1cc2ccccn2n1	x	x	84.6	i	0.75	-3.7	-0.5
COc1ccc(-c2nn(-c3ccccc3)cc2CNCCN2CCOC2=O)c(F)c1	-7.3	51.2	106.4	i	1.07	x	5.0
NC(=O)CC(O)c1cccc(Cl)c1 (stereo not drawn)	-6.2	133.6	105.5	x	x	-2.0	-16.3
CCCNC(=O)NC(=O)COC(=O)c1ccc(S(=O)(=O)N(C)c2ccccc2OC)cc1	x	x	101.1	i	0.81	x	-0.8
COc1ccc(-n2cc(C(=O)c3cc(Cl)ccc3O)cc(C#N)c2=O)cc1	-8.6	50.7	102.7	i	1.22	x	0.6
CCCn1nnnc1NC(=O)COc1ccc(CC)cc1	-40.0	142.3	105.2	i	0.92	-0.1	-5.8
COc1ccc(S(=O)(=O)N2CCCN(CC(=O)Nc3cc(NC(C)=O)ccc3OC)CC2)cc1	50.0	113.3	92.2	i	1.22	-1.7	-6.8
CCCCCCc1cc2cc(C(N)=O)c(=N)oc2cc1O	12.3	125.0	105.2	i	1.09	104.6*	3.0
C[N+](C)(C)CCOP(=O)(O)OP(=O)([O-])OC[C@H]1O[C@@H](n2ccc(N)nc2=O)[C@H](O)[C@@H]1O	42.9	105.6	140.9	i	0.86	0.2	-0.7
Cc1nc2nc[nH]n2c(=O)c1NC(=O)c1c(-c2ccccc2Cl)noc1C	-3.1	89.8	199.0	i	0.91	-2.2	-1.4
O=C(Cn1cc(-c2nnnn2-c2ccc(Cl)cc2)c(=O)c2ccccc21)c1ccccc1	50.0	102.9	112.9	i	0.79	-2.9	-9.6
CC(=O)Oc1ccc2oc(-c3ccccc3)c(C(N)=O)c2c1	x	x	102.8	i	0.95	x	x
O=C(CCN1C(=O)c2ccccc2C1=O)N1CCN(c2ccccn2)CC1	x	x	99.9	i	0.83	-1.4	0.3
CC(Oc1ccc(C(=O)c2ccccc2)cc1)C(=O)Nc1ccc(S(N)(=O)=O)cc1 (stereo not drawn)	23.1	115.6	113.7	i	0.99	-1.0	-3.1
O=C(OCCN(C1=NS(=O)(=O)c2ccccc21)c1ccc(Cl)cc1)c1ccco1	-115.4	106.4	98.5	i	1.02	0.7	-7.2
OC(CSc1ccccc1Cl)CN1CCN(c2ccc(F)cc2)CC1 (stereo not drawn)	-12.5	138.4	101.5	i	1.18	-2.0	-2.0
Cc1ccc(-c2nnc(SCC(=O)N/N=C/c3ccc(C)s3)n2-c2ccccc2)cc1	x	x	93.2	x	x	-0.3	-8.4
O=S(=O)(NCc1ccco1)c1ccc(S(=O)(=O)N2CCCCC2)cc1	-75.0	68.5	108.3	i	1.07	-2.2	-0.7
COCCCn1c(-c2ccccc2Cl)n[nH]c1=S	64.3	83.0	98.5	i	0.94	-1.4	-2.8
CC(C)(C)n1ncc2c(=O)n(CC(=O)OCc3ccccc3)cnc21	-26.7	134.0	103.2	i	0.97	-1.7	-4.5
COc1ccc(/C=N/c2c(-c3ccc(OC)cc3)nc3n2CCS3)cc1	-47.6	122.7	102.2	i	0.77	0.1	-11.4
Cc1cccnc1NS(=O)(=O)c1cccc([N+](=O)[O-])c1	-50.6	120.1	112.3	i	1.06	-0.4	4.0
CCC(C)Nc1nc(OC(C(F)(F)F)C(F)(F)F)nc(OC(C(F)(F)F)C(F)(F)F)n1 (stereo not drawn)	62.5	110.2	87.4	i	0.98	-1.3	-3.9
COc1cc(NC(=O)CSc2nnnn2Cc2ccc3c(c2)OCO3)cc(OC)c1	-38.2	112.5	90.8	x	x	-1.2	-4.1
CCC(=O)Nc1ccc(NC(=O)c2ccco2)c(OC)c1	-37.9	170.3	98.0	x	x	-3.0	-6.4
CCOc1ccc(-c2ccc(SC)nn2)cc1	x	x	101.7	i	0.98	x	-0.6
COc1cc(NC(=O)C(=O)Nc2ccc3nc4n(c(=O)c3c2)CCCCC4)cc(OC)c1OC	x	x	101.0	i	0.62	x	x
CN1CCN(C(=O)CCN2C(=O)c3ccccc3C2=O)CC1	x	x	103.6	i	0.61	x	4.6
S=C(NCC1CCCO1)Nc1ccccc1 (stereo not drawn)	61.1	109.0	104.7	i	0.74	x	-4.0

Four entries out of the list above, ordered by the value under PKD1 inh, descending.
Molecule | PKD1 inh
O=S(=O)(NCc1ccco1)c1ccc(S(=O)(=O)N2CCCCC2)cc1 | -0.7
CCC(C)Nc1nc(OC(C(F)(F)F)C(F)(F)F)nc(OC(C(F)(F)F)C(F)(F)F)n1 (stereo not drawn) | -3.9
S=C(NCC1CCCO1)Nc1ccccc1 (stereo not drawn) | -4.0
COc1ccc(/C=N/c2c(-c3ccc(OC)cc3)nc3n2CCS3)cc1 | -11.4

Bioassay records (PubChem)
